rRNA inh HTS: reduced GFP signal of wild-type E. coli, primary screen, bacterial rRNA inhibitor project, GFP/RFP fluorescence, OD600, single point; AID 720706, 2013; GFP signal change (wild-type ribosome), % (test concentration not listed); 350,000 compounds, 1.6% hits; E. coli WT GFP vs humanized-ribosome RFP mutants, 24 h; active compounds read low; DMSO median 0, no signal -100;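 active = significant combined selectivity score with lowered wild-type GFP, culture density cut under 30%, mutant RFP and density less affected; inactive = any of these conditions unmet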; note: one replicate is shown; some compounds called inactive have numbers as strong as hits
Beta cell apopt: inhibitors of cytokine-induced beta cell apoptosis, primary screen, luminescence | INS-1E cytokine-induced death, ATP luminescence, 48 h; percent of positive-control rescue, neutral wells zero | protection from apoptosis, % (no concentration beside the values) | 300,000 compounds, 0.8% hits;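 active = all replicates at 75% or more, or half of them and the mean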;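 note: 0% = cytokine-treated negative control wells and 100% = positive control rescue; higher means more ATP so stronger rescue from cytokine killing; wells of about 40 µL received 100 nL stock; the first replicate is given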
Bfl-1 A1 inh: caspase 3/7 activation in MEF A1-2A-BIM cells, primary screen, A1 inhibitor project, cell-based, luminescence, HTS | Caspase-Glo 3/7 luminescence, 3 h; percent of clofoctol response, vehicle zero | caspase activation, % (concentration not given with the values) | 330,000 compounds, 0.066% hits | AID 2462, 2010;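 active = over half of replicate activation scores above 10%, or exactly half above 10 with the replicate mean above 10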;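 note: wells of about 30 µL received 50 nL stock; many hits fall short of the cut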
UCH37 DUB inh: inhibitors of human UCH37 deubiquitinase, primary screen, biochemical, Ub-AMC cleavage, fluorescence; Ubiquitin carboxyl-terminal hydrolase isozyme L5 (Homo sapiens), Q9Y5K5; 330,000 compounds, 0.33% hits; purified proteasome/UCH37; inhibition, % (no concentration beside the values);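 active = mean of two replicates above 20%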;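 note: 0% = compound-free wells with enzyme and 100% = wells lacking proteasome; stock transfer was 100 nL into about 20 µL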
Target sequence (Q9Y5K5 whole entry, looked up): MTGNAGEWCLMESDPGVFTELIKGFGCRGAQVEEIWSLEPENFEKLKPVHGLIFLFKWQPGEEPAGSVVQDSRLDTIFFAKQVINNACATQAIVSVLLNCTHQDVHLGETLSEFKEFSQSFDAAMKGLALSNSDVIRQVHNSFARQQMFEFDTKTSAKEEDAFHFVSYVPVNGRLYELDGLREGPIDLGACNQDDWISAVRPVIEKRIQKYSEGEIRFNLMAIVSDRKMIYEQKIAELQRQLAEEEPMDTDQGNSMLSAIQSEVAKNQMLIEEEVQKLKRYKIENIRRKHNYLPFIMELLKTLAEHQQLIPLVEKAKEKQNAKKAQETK
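System: Proteasome-associated human UCH37 deubiquitinase; Input: 0.15 nM proteasome in added enzyme buffer; Also added: Ub-AMC substrate from 1 µM stock; Incubation: 30 min compound-proteasome preincubation then 25 min substrate reaction, room temperature; Detection: fluorescence, ex 355 nm, em 460 nm; Read-out: % inhibition of Ub-AMC cleavage fluorescence; Benchmarks: no-proteasome and no-compound wells.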
T cruzi repl: inhibitors of intracellular T. cruzi growth, primary screen, luminescence, NIH3T3 host cells | inhibition, % (test concentration not listed) | 300,000 compounds, 1.4% hits | T. cruzi beta-gal in NIH3T3, 90 h;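 active = mean inhibition across valid replicates above about 55%, limit read from the data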;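 note: signal also drops with host cell toxicity which is not excluded here; 0% = plate median of DMSO wells and 100% = zero luminescence signal; higher percent means less beta-gal luminescence so fewer parasites; stock transfer was 50 nL into about 50 µL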
MLL AF4-AF9 inh: inhibitors of AF4 peptide binding to AF9, primary screen, biochemical, AlphaScreen, biotin-AF4 peptide, FLAG-AF9, single point. 350,000 compounds, 0.47% hits. inhibition, % at 10 µM. Protein AF-9 (Homo sapiens), P42568;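 active = every replicate reaching a set inhibition limit, whatever the replicate mean, cut at about 25% in these data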;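 note: 0% = plate neutral control median and 100% = total signal loss; the record names both 10 and 1 µM as test concentration; the first replicate is given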
Target sequence (P42568 whole entry, looked up): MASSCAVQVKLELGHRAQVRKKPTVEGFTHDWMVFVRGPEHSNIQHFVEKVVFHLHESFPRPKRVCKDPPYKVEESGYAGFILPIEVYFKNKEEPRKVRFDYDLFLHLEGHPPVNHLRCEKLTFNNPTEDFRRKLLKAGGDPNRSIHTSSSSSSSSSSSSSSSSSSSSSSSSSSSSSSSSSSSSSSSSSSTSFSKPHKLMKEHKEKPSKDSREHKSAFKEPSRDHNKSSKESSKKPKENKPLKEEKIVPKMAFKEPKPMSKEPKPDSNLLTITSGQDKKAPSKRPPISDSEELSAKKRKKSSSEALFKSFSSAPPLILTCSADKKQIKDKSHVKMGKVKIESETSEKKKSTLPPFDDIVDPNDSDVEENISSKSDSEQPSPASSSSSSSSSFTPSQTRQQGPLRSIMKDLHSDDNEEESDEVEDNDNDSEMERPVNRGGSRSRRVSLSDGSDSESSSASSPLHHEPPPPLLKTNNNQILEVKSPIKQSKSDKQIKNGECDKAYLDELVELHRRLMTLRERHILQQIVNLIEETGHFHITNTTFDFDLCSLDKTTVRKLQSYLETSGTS
E coli growth: E. coli growth inhibition, primary screen, OD600; Escherichia coli growth, 23 h; active compounds read low; OD600 absorbance (test concentration not listed); 330,000 compounds, 0.21% hits;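 active = OD600 absorbance below the run mean of sample wells minus 3.6 SD, in any replicate, cut at about 0.56 in these data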;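 note: stock transfer was 300 nL into about 60 µL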
FGF22 binding: binders of human FGF22 protein, primary screen, FGF22 synaptogenesis inhibitor project, biophysical, thermal shift, single point; 340,000 compounds, 1.5% hits; recombinant FGF22 thermal shift, SYPRO orange fluorescence; percent of sucrose octasulfate shift, DMSO zero; AID 651658, 2012; Fibroblast growth factor 22 (Homo sapiens), Q9HCT0; calls only at 9.99 µM;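 active = melting point raised past a set limit in the mean and every replicate; three in four hits are not shown here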
Target sequence (Q9HCT0 whole entry, looked up): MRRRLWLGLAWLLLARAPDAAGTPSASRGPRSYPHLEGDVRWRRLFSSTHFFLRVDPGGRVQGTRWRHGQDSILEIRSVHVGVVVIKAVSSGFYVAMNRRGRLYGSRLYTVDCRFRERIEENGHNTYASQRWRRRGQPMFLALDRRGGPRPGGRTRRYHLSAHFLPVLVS
rRNA inh HTS OD600: second read-out of rRNA inh HTS, no call of its own (marks repeat the call); OD600 change, %; measured here: OD600 growth;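 optical density of the mix in the first replicate; 0 = DMSO median and -100 = no signal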
rRNA inh HTS RFP: further read-out of rRNA inh HTS, marked with its call; RFP signal change, %; measured here: RFP humanized mutant strains;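 first replicate; 0 = DMSO median and -100 = no signal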
Active calls of the source: *; i = inactive; . = no result given. The list is partial; the hit share may differ from the screen's.

(1) COc1cc(C)c(S(=O)(=O)N2CCCC2)cc1C
(2) O=C(NCc1ccccc1)C1CCCN(C(=O)NCc2ccccc2)C1 (stereo not given)
(3) O=C(O)c1cccnc1Sc1ccc(Cl)cc1
(4) COC(=O)c1cc(CC(=O)c2ccc(O)cc2O)c(C)o1
(5) O=S(=O)(c1ccc(Cl)cc1)N1CCN(c2ccccn2)CC1
(6) Cc1sc2nc(SCC(=O)N3CC(C)OC(C)C3)n(C)c(=O)c2c1C (stereo not given)
(7) O=C(O)CCc1ccc(-c2ccc(F)cc2)n1CC(=O)O
(8) CCCOc1ccc(-c2cnc(N)s2)cc1

| assay / entry | 1 | 2 | 3 | 4 | 5 | 6 | 7 | 8 |
| --- | --- | --- | --- | --- | --- | --- | --- | --- |
| rRNA inh HTS | . | 2.3 | 8.8 | . | 3.3 | -7.9 | . | 13.6 |
| rRNA inh HTS OD600 | . | 4.5 | 3.9 | . | 11.5 | -11.6 | . | 0.7 |
| rRNA inh HTS RFP | . | -0.9 | -2.9 | . | 0.0 | 4.2 | . | 22.6 |
| Beta cell apopt | . | -5.2 | 2.1 | 5.6 | 0.6 | 5.9 | -3.9 | 1.8 |
| Bfl-1 A1 inh | 1.1 | 0.1 | -0.1 | 0.1 | -0.3 | 0.2 | 0.6 | -3.8 |
| UCH37 DUB inh | 0.9 | 4.6 | -1.8 | 5.4 | 3.8 | 5.1 | 0.9 | 1.6 |
| T cruzi repl | -17.6 | 11.4 | -2.1 | -15.2 | 11.9 | 12.1 | -0.5 | -17.3 |
| MLL AF4-AF9 inh | . | -0.5 | 9.2 | . | -2.7 | 3.9 | . | 4.3 |
| E coli growth | 0.709 | 0.692 | 0.671 | 0.657 | 0.663 | 0.745 | 0.684 | 0.692 |
| FGF22 binding | . | i | i | . | i | i | . | i |

(9) COc1ccc(/C=C/C(=O)Nc2ccc(S(=O)(=O)N3CCOCC3)cc2)c(OC)c1
(10) Cc1cccc(C(=O)NCCc2ccccc2)c1
(11) Fc1ccccc1CNC(=S)Nc1cccc(C(F)(F)F)c1
(12) O=C(NCCc1ccccc1)C(=O)NCc1ccncc1
(13) CC(OC(=O)CN1C(=O)C2C3C=CC(C4CC34)C2C1=O)C(=O)c1ccccc1 (stereo not given)
(14) O=C(O)CCCN(Cc1cccc(Br)c1)S(=O)(=O)c1ccc(Br)cc1
(15) CCn1cc(CN2CCCC(CO)(Cc3cccc(Cl)c3)C2)cn1 (stereo not given)
(16) COc1ccc(C2/C=C\CN(C(=O)C3CCCC3)CC(=O)N2Cc2ccc(F)cc2)cc1 (stereo not given)

| assay / entry | 9 | 10 | 11 | 12 | 13 | 14 | 15 | 16 |
| --- | --- | --- | --- | --- | --- | --- | --- | --- |
| rRNA inh HTS | -10.2 | 0.8 | -39.1 | 5.0 | -1.3 | -51.6 | 14.6 | -22.4 |
| rRNA inh HTS OD600 | -7.2 | 4.1 | -72.0 | 2.6 | -4.1 | -42.3 | 13.2 | -28.1 |
| rRNA inh HTS RFP | 1.4 | -0.5 | -13.3 | -2.2 | 2.4 | -26.1 | 0.5 | -0.3 |
| Beta cell apopt | 14.2 | -0.7 | 2.0 | -4.2 | -1.9 | -4.2 | -3.2 | -5.0 |
| Bfl-1 A1 inh | 1.1 | -4.1 | 0.1 | 0.4 | 0.2 | -1.0 | -0.7 | 0.2 |
| UCH37 DUB inh | -32.1 | 0.0 | 2.9 | 2.1 | 1.7 | 3.5 | 2.7 | 0.5 |
| T cruzi repl | . | -3.4 | 7.5 | -5.3 | -11.2 | -1.1 | 26.3 | -17.4 |
| MLL AF4-AF9 inh | 1.1 | -1.1 | -8.1 | -1.4 | -0.1 | -3.5 | -1.5 | 0.4 |
| E coli growth | 0.682 | 0.645 | 0.63 | 0.681 | 0.679 | 0.668 | 0.728 | . |
| FGF22 binding | i | i | i | i | i | i | i | i |

(17) CC1(C)Cc2ccccc2-c2nc(NCCCO)n(-c3ccccc3)c(=O)c21
(18) OC1(C#CCN2CCCC2)c2ccccc2-c2ccccc21
(19) NC(=O)CSc1nnnn1-c1ccc(OC(F)(F)F)cc1
(20) COc1ccc(NC(=O)c2ccccc2)cc1
(21) Cn1[nH]c(-c2ccccc2)c(/C=N/O)c1=O
(22) CC(=O)c1ccc(N2CCN(C(=O)/C=C/c3cccs3)CC2)cc1
(23) COc1ccc(CNS(=O)(=O)c2ccc(C3CNC(=O)C3)cc2)cc1 (stereo not given)
(24) CCN(Cc1ccccc1)C(=O)CN1C(=O)NC2(CC(C)CC(C)(C)C2)C1=O (stereo not given)

| assay / entry | 17 | 18 | 19 | 20 | 21 | 22 | 23 | 24 |
| --- | --- | --- | --- | --- | --- | --- | --- | --- |
| rRNA inh HTS | . | . | . | 14.2 | 6.8 | -3.1 | . | -2.6 |
| rRNA inh HTS OD600 | . | . | . | 13.2 | 7.8 | -2.6 | . | -12.0 |
| rRNA inh HTS RFP | . | . | . | 5.1 | -2.3 | -0.8 | . | 3.5 |
| Beta cell apopt | -3.4 | . | 2.0 | 7.5 | 1.8 | -1.2 | -0.9 | 1.3 |
| Bfl-1 A1 inh | -1.1 | -0.7 | -0.2 | -11.2 | 0.8 | -0.2 | 0.2 | 0.7 |
| UCH37 DUB inh | i | 3.7 | 3.3 | -0.4 | . | 4.2 | -0.2 | 5.7 |
| T cruzi repl | 11.8 | -3.6 | 0.4 | . | -2.5 | 9.1 | -3.1 | 15.6 |
| MLL AF4-AF9 inh | . | 5.7 | . | 6.3 | 1.1 | -0.6 | . | -4.3 |
| E coli growth | 0.686 | 0.622 | 0.701 | 0.645 | . | 0.68 | 0.681 | 0.734 |
| FGF22 binding | . | i | . | i | i | . | . | i |

(25) COc1nc(N)nc(N2CCOCC2)n1
(26) O=C(c1ccc(F)cc1)c1cc2ccc(O)cc2oc1=O
(27) COc1ccc(C(=O)CSc2nc(C)cc(=O)[nH]2)cc1C
(28) O=C(Nc1cccc(-c2cccc(F)c2)c1)C1CCN(Cc2ccc(CO)o2)CC1
(29) CCOC(=O)Nc1ccc(C)cc1C
(30) C#CCOc1ccc(/C=C2\SC(=S)N(Cc3cccnc3)C2=O)cc1
(31) O=C(CN1C(=O)c2ccc([N+](=O)[O-])cc2C1=O)NCc1ccco1

| assay / entry | 25 | 26 | 27 | 28 | 29 | 30 | 31 |
| --- | --- | --- | --- | --- | --- | --- | --- |
| rRNA inh HTS | . | -5.8 | 0.9 | -16.9 | . | . | 1.8 |
| rRNA inh HTS OD600 | . | -7.4 | 0.7 | -22.4 | . | . | 8.7 |
| rRNA inh HTS RFP | . | -1.5 | -4.4 | -1.6 | . | . | -0.5 |
| Beta cell apopt | -1.2 | 10.3 | -3.0 | -2.2 | -3.3 | . | -1.0 |
| Bfl-1 A1 inh | -0.5 | -8.6 | -1.2 | -0.8 | 0.2 | -2.1 | 1.1 |
| UCH37 DUB inh | 1.1 | -0.9 | 5.4 | 3.2 | 1.2 | 0.3 | 2.7 |
| T cruzi repl | -10.1 | -7.9 | 6.7 | 15.4 | 1.1 | 29.4 | -6.5 |
| MLL AF4-AF9 inh | . | 5.5 | -3.9 | 1.4 | . | . | -2.0 |
| E coli growth | 0.686 | 0.667 | 0.658 | 0.716 | 0.724 | 0.754 | 0.662 |
| FGF22 binding | . | i | i | i | . | . | i |

Arranged by molecular weight (largest number first): 14 of the compounds above
(14) O=C(O)CCCN(Cc1cccc(Br)c1)S(=O)(=O)c1ccc(Br)cc1
(16) COc1ccc(C2/C=C\CN(C(=O)C3CCCC3)CC(=O)N2Cc2ccc(F)cc2)cc1 (stereo not given)
(28) O=C(Nc1cccc(-c2cccc(F)c2)c1)C1CCN(Cc2ccc(CO)o2)CC1
(6) Cc1sc2nc(SCC(=O)N3CC(C)OC(C)C3)n(C)c(=O)c2c1C (stereo not given)
(13) CC(OC(=O)CN1C(=O)C2C3C=CC(C4CC34)C2C1=O)C(=O)c1ccccc1 (stereo not given)
(30) C#CCOc1ccc(/C=C2\SC(=S)N(Cc3cccnc3)C2=O)cc1
(2) O=C(NCc1ccccc1)C1CCCN(C(=O)NCc2ccccc2)C1 (stereo not given)
(22) CC(=O)c1ccc(N2CCN(C(=O)/C=C/c3cccs3)CC2)cc1
(11) Fc1ccccc1CNC(=S)Nc1cccc(C(F)(F)F)c1
(27) COc1ccc(C(=O)CSc2nc(C)cc(=O)[nH]2)cc1C

| assay / entry | 14 | 16 | 28 | 6 | 13 | 30 | 2 | 22 | 11 | 27 |
| --- | --- | --- | --- | --- | --- | --- | --- | --- | --- | --- |
| rRNA inh HTS | -51.6 | -22.4 | -16.9 | -7.9 | -1.3 | . | 2.3 | -3.1 | -39.1 | 0.9 |
| rRNA inh HTS OD600 | -42.3 | -28.1 | -22.4 | -11.6 | -4.1 | . | 4.5 | -2.6 | -72.0 | 0.7 |
| rRNA inh HTS RFP | -26.1 | -0.3 | -1.6 | 4.2 | 2.4 | . | -0.9 | -0.8 | -13.3 | -4.4 |
| Beta cell apopt | -4.2 | -5.0 | -2.2 | 5.9 | -1.9 | . | -5.2 | -1.2 | 2.0 | -3.0 |
| Bfl-1 A1 inh | -1.0 | 0.2 | -0.8 | 0.2 | 0.2 | -2.1 | 0.1 | -0.2 | 0.1 | -1.2 |
| UCH37 DUB inh | 3.5 | 0.5 | 3.2 | 5.1 | 1.7 | 0.3 | 4.6 | 4.2 | 2.9 | 5.4 |
| T cruzi repl | -1.1 | -17.4 | 15.4 | 12.1 | -11.2 | 29.4 | 11.4 | 9.1 | 7.5 | 6.7 |
| MLL AF4-AF9 inh | -3.5 | 0.4 | 1.4 | 3.9 | -0.1 | . | -0.5 | -0.6 | -8.1 | -3.9 |
| E coli growth | 0.668 | . | 0.716 | 0.745 | 0.679 | 0.754 | 0.692 | 0.68 | 0.63 | 0.658 |
| FGF22 binding | i | i | i | i | i | . | i | . | i | i |

(7) O=C(O)CCc1ccc(-c2ccc(F)cc2)n1CC(=O)O
(26) O=C(c1ccc(F)cc1)c1cc2ccc(O)cc2oc1=O
(10) Cc1cccc(C(=O)NCCc2ccccc2)c1
(8) CCCOc1ccc(-c2cnc(N)s2)cc1

| assay / entry | 7 | 26 | 10 | 8 |
| --- | --- | --- | --- | --- |
| rRNA inh HTS | . | -5.8 | 0.8 | 13.6 |
| rRNA inh HTS OD600 | . | -7.4 | 4.1 | 0.7 |
| rRNA inh HTS RFP | . | -1.5 | -0.5 | 22.6 |
| Beta cell apopt | -3.9 | 10.3 | -0.7 | 1.8 |
| Bfl-1 A1 inh | 0.6 | -8.6 | -4.1 | -3.8 |
| UCH37 DUB inh | 0.9 | -0.9 | 0.0 | 1.6 |
| T cruzi repl | -0.5 | -7.9 | -3.4 | -17.3 |
| MLL AF4-AF9 inh | . | 5.5 | -1.1 | 4.3 |
| E coli growth | 0.684 | 0.667 | 0.645 | 0.692 |
| FGF22 binding | . | i | i | i |
